# AID504770 = E. coli YBA685 growth inhibition, screen for V. cholerae RctB inhibitors | AID 504770 | 0.27% of 130,000 active | z-score (concentration not given with the values) | E. coli YBA685 rctB-dependent plasmid, OD600 growth, 3 h; stronger effect = lower value;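 active = z-score under -2 on both plates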;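 note: wells of about 30 µL received 100 nL stock; score is relative to mean and SD of the test wells; the first replicate is given; strong numbers were not always called active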
# CapD inh = CapD enzyme inhibition; purified CapD enzyme, fluorescence intensity read-out; stronger effect = lower value; some hits fall short of the stated cut; z-score (no concentration beside the values); 0.23% of 140,000 active; AID 492967;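 active = z-score under -4 in either of two replicates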;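 note: stock transfer was 100 nL into about 40 µL; score is relative to mean and spread of the plate; one replicate is shown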
# * = called active by the depositor; i = inactive; x = not tested or not shown. This is a random part of the collection; any-hit rate near 0.37%.
SMILES,AID504770,CapD inh
O=C1C(=O)N(c2ccc(F)cc2)C(c2ccc(F)cc2)/C1=C(/O)c1ccccc1 (stereo not drawn),x,0.035
Cc1ccc(CSc2nc(Cl)c3sc4nc(C)cc(C)c4c3n2)cc1,x,1.97
CC1CCCN(C(=O)COC(=O)c2cccnc2Nc2cccc(C(F)(F)F)c2)C1 (stereo not drawn),0.6,x
S=C(CCC(=S)Nc1ccc(Cl)cc1)Nc1ccc(Cl)cc1,x,0.395
Cc1cccc(S(=O)Cc2ccc(C(=O)N3CCCC3)o2)c1 (stereo not drawn),-0.8,0.36
CN(C(=O)CS(=O)(=O)c1cn(CC(=O)N2CCOCC2)c2ccccc12)c1ccccc1,-0.15,0.44
CC(C)C(=O)Nc1ccc(-c2cn3ccccc3n2)cc1,-1.35,x
Cc1ccccc1Oc1ccc(Oc2ccccc2C)nn1,0.05,0.365
Clc1ccc(NCc2ccsc2)cc1,-0.5,x
c1ccc2[nH]c(NCCN3CCOCC3)nc2c1,-0.6,0.28
CCc1ccccc1NC(=O)C1CC(c2cccc(OC)c2)=NO1 (stereo not drawn),-0.25,-0.615
O=c1oc2ccc3ccccc3c2cc1-c1nn(-c2ccccc2)cc1/C=N/O,0.15,4.44
CCOc1ncnc2c1sc1nc(N3CCOCC3)c3c(c12)CC(C)(C)OC3,x,1.79
O=c1c2ccccc2c2c(O)nc(-c3ccccc3)n2n1Cc1ccccc1,-1.1,x
Cc1ccc(N2NC(=O)CC2=O)cc1Cl,-0.65,0.52
O=C(NNc1ccccc1)NNc1ccccc1,-0.25,0.275
Cc1cc(-c2c(C)[nH]n(-c3ccc(Cl)cc3)c2=O)n(-c2ccc(Cl)cc2)n1,x,-0.49
O=C(c1ccc(S(=O)(=O)NCc2ccco2)cc1)N1CCN(c2ncccn2)CC1,-0.15,x
CCOc1ccc2cc3c(N)c(C(=O)N(CC)CC)sc3nc2c1,-0.7,x
CC1CC(C)CN(C(=O)CSc2nc3ccc(N4CCOCC4)cc3c(=O)n2Cc2ccc3c(c2)OCO3)C1 (stereo not drawn),-0.1,1.6
CSC1=NC(=Nc2cccc(C(F)(F)F)c2)C2(CCCCC2)N1c1cccc(Cl)c1,x,-0.075
O=C1CSC(c2ccc(Br)cc2)N1C1CCCCC1 (stereo not drawn),-1.15,0.035
Cc1cc(NS(=O)(=O)c2ccc(NC(=O)c3ccccc3)cc2)no1,x,-0.26
N#CCS(=O)(=O)c1cccs1,x,0.175
Cc1ccc(N2CC(C(=O)N(C)Cc3c(F)cccc3Cl)CC2=O)cc1 (stereo not drawn),0.2,x
COC(=O)c1ccc(OCCOCCn2c(-c3ccc(Cl)cc3)nc3ccccc3c2=O)cc1,x,0.2
CCOC(=O)Cc1csc(SCC(=O)NC2CCCCC2)n1,0,x
O=C(N/N=C/c1cccc(OCc2ccccc2)c1)c1cccs1,x,-0.055
O=C1CC(c2ccccc2)c2cccc(N3CCN(c4ccc(F)cc4)CC3)c21 (stereo not drawn),x,-0.605
O=C(CSc1c[nH]c2ccccc12)NC1CCCC1,0.75,x
COC(=O)c1ccc(NC(=O)N2CC(C)Oc3ccccc32)cc1 (stereo not drawn),-1.1,-0.555
CN(Cc1cnc2nc(N)nc(N)c2n1)c1ccc(C(=O)NC(CCC(=O)O)C(=O)O)cc1 (stereo not drawn),-0.05,-0.16
Cc1ccc(C(=O)NC2CCN(C(=O)NC3CCCCC3)CC2)cc1,-0.55,x
Clc1ccc(-c2ncc3ccccn23)cc1,1.45,-0.74
O=C(NCc1ccc2c(c1)OCO2)c1ccc(CSc2nc3ccncc3[nH]2)cc1,-0.3,0.125
CC(=O)Nc1ccc(Nc2cc(C)nc(Nc3ccc(NC(C)=O)cc3)n2)cc1,x,2.33
COc1cc(Br)cc(/C=N/N(CCO)C2=NS(=O)(=O)c3ccccc32)c1OC,0.3,4.09
O=C(Nc1ccc(-c2noc(COc3ccccc3Cl)n2)cc1)c1cccs1,x,0.895
COC(=O)c1sccc1S(=O)(=O)N1CCC(C(N)=O)(N2CCCCC2)CC1,0.25,0.385
CC(=O)N1N=C(CCn2c3ccccc3c3ccccc32)OC1(C)c1cccs1 (stereo not drawn),-1.55,-0.085

# One compound at a time, as listed above. Order of values: AID504770	CapD inh
# COC(=O)c1sccc1S(=O)(=O)N1CCC(C(N)=O)(N2CCCCC2)CC1 is listed as 0.25	0.385
# CCOC(=O)Cc1csc(SCC(=O)NC2CCCCC2)n1 is listed as 0	x
# CN(Cc1cnc2nc(N)nc(N)c2n1)c1ccc(C(=O)NC(CCC(=O)O)C(=O)O)cc1 (stereo not drawn) is listed as -0.05	-0.16
# Clc1ccc(-c2ncc3ccccn23)cc1 is listed as 1.45	-0.74
# Cc1ccc(N2CC(C(=O)N(C)Cc3c(F)cccc3Cl)CC2=O)cc1 (stereo not drawn) is listed as 0.2	x

# Compounds above that have a CF3 group, in the order listed:
SMILES,AID504770,CapD inh
CC1CCCN(C(=O)COC(=O)c2cccnc2Nc2cccc(C(F)(F)F)c2)C1 (stereo not drawn),0.6,x
CSC1=NC(=Nc2cccc(C(F)(F)F)c2)C2(CCCCC2)N1c1cccc(Cl)c1,x,-0.075

# Next section.
SMILES,AID504770,CapD inh
c1cc(-c2nc(-c3ccc4c(c3)OCCCO4)cs2)ccc1-c1csnn1,0.05,18.2
O=[N+]([O-])c1cccc(C2=Nn3c(Cc4ccccc4)nnc3SC2)c1,x,0.775
O=C(Cc1cn2ccsc2n1)OCC(=O)N1CCc2ccccc21,-1.2,x
Cc1cc(C(F)(F)F)nn1Cc1ccc(C(=O)O)o1,0.55,x
CC(=O)N1CC(C(=O)N2CCN(S(=O)(=O)c3ccc4c(c3)CCCC4)CC2)Oc2ccccc21 (stereo not drawn),-0.9,x
O=C(CN1CCN(c2nc3cc(Cl)ccc3s2)CC1)c1ccccc1,-0.65,0.475
O=[N+]([O-])c1ccc(-c2ccc(I)cc2)cc1,x,0.215
O=C(OC(CN1CCCCC1)CN1CCCCC1)c1ccccc1,1.55,0.125
O=C(Nc1c2c(nn1-c1ccc([N+](=O)[O-])cc1)CS(=O)(=O)C2)c1ccc(C(=O)c2ccccc2)cc1,x,-0.97
CSC1=N/C(=C\c2ccc3c(c2)OCO3)C(=O)S1,0.9,-0.235
Cc1sc(C(=O)NCCc2ccccc2)c2nc(C)n(CC(=O)NCCc3ccccc3)c(=O)c12,0.95,-0.115
OCC(O)CN(c1ccccc1)c1ccccc1 (stereo not drawn),-1.1,x
O=c1nc2n(c3ccc(Cl)cc13)Cc1ccccc1-2,x,3.84
O=C(/C=C\c1cccs1)N1CCN(Cc2ccc3c(c2)OCO3)CC1,1,-0.86
CC(C)Cc1ccc(S(=O)(=O)N2c3cc(F)ccc3CCC2C)cc1 (stereo not drawn),-0.2,12.5
CCOC(=O)c1noc(NC(=O)c2ccc(C(F)(F)F)cc2)c1-c1ccccc1,-0.2,x
COCCn1c(=O)c(C#N)cc2c(=O)n3ccccc3nc21,0,21.2
COc1ccc(-n2nnn(CN3CC(C)OC(C)C3)c2=S)cc1 (stereo not drawn),0.1,x
CC(C)C(=O)NC1CCCCCCCCCCC1,0.9,-0.275
O=C1C2C3C=CC(C3)C2C(=O)N1CCCCN1C(=O)C2C3C=CC(C3)C2C1=O (stereo not drawn),0.35,x
COC(=O)C1=C(C)OC(N)=C(C#N)C1c1ccco1 (stereo not drawn),0.05,x
COc1ccc2oc3c(c2c1)NC(=O)CN=C3c1ccc(F)cc1,-0.05,0.49
COc1ccc(C=NCc2ccc(OC)cc2)cc1,-0.35,-0.15
Cc1ccc(SCC(=O)c2ccc(CC(=O)O)s2)cc1,1.8,-1.01
CC(C)(C)c1cc(N)n(-c2ccccc2)n1,-0.2,-0.28
O=C(Cn1nnc(-c2ccc(Cl)cc2)n1)NC1CCS(=O)(=O)C1 (stereo not drawn),-0.65,x
CC(=O)Nc1ccc(S(=O)(=O)N2c3ccccc3NC(=O)CC2C)c(Cl)c1 (stereo not drawn),0.35,-0.14
CN(C)S(=O)(=O)c1cccc(CSc2nnc(-c3ccccc3Br)o2)c1,-0.1,x
Cc1nn(-c2ccccc2)c2nc(-c3cccs3)cc(-c3nnco3)c12,-0.95,x
COC(=O)CN1C(=O)S/C(=C\c2ccccc2)C1=O,-0.55,x
O=S(=O)(c1cccc(C(F)(F)F)c1)c1cnc(-c2ccccn2)nc1-c1ccncc1,x,0.48
COc1ccc(S(=O)(=O)N2CC(O)C[C@H]2C(=O)OCC(=O)N2CCCCCC2)cc1 (stereo partly drawn),-0.95,x
CNS(=O)(=O)c1cccc(C(=O)OCC(=O)Nc2ccc(N3CCCCC3)cc2)c1,0.45,x
Cc1nc(SCC(=O)Nc2cccc(C(F)(F)F)c2)c2cnn(-c3ccccc3)c2n1,-1.25,0.615
CC(=O)NC(C(=O)N1CCN(S(=O)(=O)c2ccc(C)cc2)CC1)C(C)C (stereo not drawn),1.1,x
N#Cc1cnc(Nc2ccccc2)nc1,-0.65,-1.21
COCCCNC1=C(C#N)C(=O)NC(c2ccc(O)c(OC)c2)S1 (stereo not drawn),x,-0.425
Cc1ccc(S(=O)(=O)NNC(=O)C2CCN(Cc3ccccc3)CC2)cc1,x,-0.16
COC(=O)C1=C(C)NC(C)=C(C(=O)OC)C1C(=O)OCc1nc2ccccc2c(=O)n1CC#N,0,x
COc1ccc(NCc2ccc[nH]2)cc1,1.25,-0.84
Cn1c(=O)c2c(O)c(C=NCc3cccnc3)c(=O)n(C)c2n(C)c1=O,1.75,-0.505
CCCCOc1ccc2c3c(c(=O)oc2c1)CCCC3,x,41.5
Cc1cc(OCC#N)nc(N)n1,1.45,x
Cc1c(C#N)c2nc3c(c(-c4ccccc4)c2n1Cc1ccccc1)CCC3,x,0.295
COc1ccc(OC)c(/C=C2\SC(=N)N(c3ccc4c(c3)OCO4)C2=O)c1,x,-0.885
Cc1cccc2nc(CNc3ccc(I)cc3)cn12,-1.25,i
O=C(O)c1cc(S(=O)(=O)N2CCCC2)ccc1O,-0.25,1.47
CC(C)n1ncc2c1N=C(c1cccs1)N(C)C2c1ccccc1 (stereo not drawn),0.7,x
COc1cc(C2C(C(=O)Nc3cc(C)ccn3)=C(C)NC3=C2C(=O)CCC3)cc(OC)c1OC (stereo not drawn),x,12.5
COc1ccccc1NC1=NC(C)(C)CS1,-1.2,-0.52
Cn1nc(OCC(N)=O)ccc1=O,1.9,x
O=C(COC(=O)C1CC=CCC1C(=O)OCC(=O)c1ccc(Cl)cc1)c1ccc(Cl)cc1 (stereo not drawn),0,7.08
CC(NC(=O)c1cc(=O)[nH]c2ccc(Br)cc12)c1ccccc1 (stereo not drawn),0,x
COc1ccc(-n2c(CCC(=O)OCC(=O)N3CCCCC3C)nc3ccccc3c2=O)c(OC)c1 (stereo not drawn),-0.75,x
O=C(CSc1nnc2sc3ccccc3n12)c1ccco1,0.2,-0.33
N#CC1=C2SCN(Cc3ccccc3)CN2C(=O)CC1c1ccccc1 (stereo not drawn),-0.2,0.195
CCCNC(=O)CCc1nc(-c2ccc(C(C)(C)C)cc2)no1,0.2,-0.8
CCn1c(C)cc(/C=C2/SC(=S)NC2=O)c1C,-0.65,-2.31
COc1ccc(S(=O)(=O)N(CC(=O)O)c2cc(Cl)ccc2OC)cc1OC,-0.4,x
COc1ccccc1NC(=O)Nc1c(SC)nsc1SC,0,0.02
# (continued)
SMILES,AID504770,CapD inh
O=C(CCc1nc2ccccc2[nH]1)NCc1ccc2c(c1)OCO2,0,-0.13
COc1cc(NC(=O)Cn2c3ccccc3c(=O)c3cc(Cl)ccc32)cc(OC)c1,x,0.63
COc1cc(O)c(/C=N/NC(=O)c2ccc(N(C)C)cc2)c(OC)c1,x,-0.69
O=C(Nc1ccccc1)C1CCN(C(=O)c2cccs2)CC1,0.15,x
CCC(C)NC(=O)c1ccccc1-c1ccccc1C(=O)NC(C)CC (stereo not drawn),-0.95,0.175
Cc1sc2nc(CSC(C)C(=O)Nc3nnc(C4CC4)s3)[nH]c(=O)c2c1C (stereo not drawn),-0.25,x
CCOC(=O)c1c(CC(C)C)csc1NC=C(C#N)C#N,-0.25,x
CC(=O)O[C@]1(C(C)=O)CC[C@H]2[C@@H]3C=C(C)C4=CC(=O)CC[C@]4(C)[C@H]3CC[C@@]21C,x,-0.89
N=c1sccn1CC(=O)NCc1cccs1,-0.7,x
Cc1csc(SCc2ccccc2C(=O)OCC(=O)Nc2nnc(-c3ccccc3)o2)n1,-0.25,x
CS(=O)(=O)c1ccc2c(c1)nc(C(F)(F)F)n2Cc1ccccc1,x,-0.355
Cc1ccc(S(=O)(=O)N2CCC[C@H]2C(=O)N2CCN(Cc3nc4ccccc4s3)CC2)cc1,1.3,x
N#CC(C#N)=C1NC2(CCCC2)Cc2ccccc21,x,22.1
Oc1ccc(Br)cc1C=Nc1ccc(F)c(F)c1,x,-0.29
O=C(Nc1ccncc1)c1snc2ccc(Cl)cc12,0.2,-0.07
CN(CC(=O)C(C#N)c1ccccc1)C1CCCCC1 (stereo not drawn),1.65,-0.145
Cc1cc(C)c2c(n1)sc1c3c(c(=O)[nH]c12)C(c1cccc(Cl)c1)C(C#N)=C(N)O3 (stereo not drawn),-0.55,41.4
CCC(=O)N1CCc2cc(Br)cc(S(=O)(=O)N3CCN(c4ccc(OC)cc4)CC3)c21,0.75,-0.185
c1ccc2c(c1)[nH]c1nc(SCCCN3CCCCC3)nnc12,x,-0.605
Cc1cccc2c1NC(C)(C)c1ssc(=S)c1-2,x,-1.61

# 7 successive entries from above, quoted:
SMILES,AID504770,CapD inh
O=C1C(=O)N(c2ccc(F)cc2)C(c2ccc(F)cc2)/C1=C(/O)c1ccccc1 (stereo not drawn),x,0.035
Cc1ccc(CSc2nc(Cl)c3sc4nc(C)cc(C)c4c3n2)cc1,x,1.97
CC1CCCN(C(=O)COC(=O)c2cccnc2Nc2cccc(C(F)(F)F)c2)C1 (stereo not drawn),0.6,x
S=C(CCC(=S)Nc1ccc(Cl)cc1)Nc1ccc(Cl)cc1,x,0.395
Cc1cccc(S(=O)Cc2ccc(C(=O)N3CCCC3)o2)c1 (stereo not drawn),-0.8,0.36
CN(C(=O)CS(=O)(=O)c1cn(CC(=O)N2CCOCC2)c2ccccc12)c1ccccc1,-0.15,0.44
CC(C)C(=O)Nc1ccc(-c2cn3ccccc3n2)cc1,-1.35,x
